Screening results from PubChem.
HSV augment = enhancers of HSV replication in host cells, fold increase, host cell viability; maximum fold increase; HSV replication augmentation in cells; 220,000 compounds, 0.005% hits;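 active = peak rise of 1.5-fold or more in the series; tested in PC3 cells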;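 note: first round at 10 µM; read as green reporter fluorescence; hits show the peak of a series up to 25 µM; 1 = signal of infected wells without compound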
INS promoter inh = inhibitors of insulin promoter-driven GFP, primary screen, imaging, TRM-6 cells (human fetal islet line), eGFP reporter, cell count | 130,000 compounds, 0.9% hits | reporter expression induced with tamoxifen | inhibition, % at 2 µM;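 active = inhibition above the mean plus 3 SD, with well images judged a real hit on visual review, cut at about 60% in these data, passing the limit was not always enough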
PKD1 inh = inhibitors of human PKD1 kinase, biochemical, fluorescence polarization | 200,000 compounds, 0.056% hits | Serine/threonine-protein kinase D1 (Homo sapiens), Q15139 | AID 797, 2007 | inhibition, %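 (about 10 µM by stock and volumes)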 | PKD1 kinase fluorescence polarization assay;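 active = inhibition of 50% or more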;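 note: controls were vehicle for no effect and a reference inhibitor for full effect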
RGS16-Gao HTS = modulators of RGS16 binding to Galphao, primary screen, biochemical, human proteins, multiplexed bead flow cytometry | Regulator of G-protein signaling 16 (Homo sapiens) + Guanine nucleotide-binding protein … | bead-based flow cytometry RGS16-Galphao binding, fluorescence; actives lie on both sides | binding response (% of control), % at 10 µM | 220,000 compounds, 0.38% hits;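 active = below 25% or above 175%, edge rows of some plates excepted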;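 note: Galphao activated by GDP with aluminum fluoride before binding; 100% = wells without compound and 0% = beads without RGS; some results beyond the cut were filed as inactive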
Target sequence (O15492 whole entry, looked up): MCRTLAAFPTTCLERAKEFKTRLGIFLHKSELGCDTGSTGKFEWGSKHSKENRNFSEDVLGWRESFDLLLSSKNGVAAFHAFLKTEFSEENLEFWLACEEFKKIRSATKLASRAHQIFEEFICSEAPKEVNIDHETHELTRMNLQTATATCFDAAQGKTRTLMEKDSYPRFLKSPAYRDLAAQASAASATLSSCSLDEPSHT
Target sequence (P09471 whole entry, looked up): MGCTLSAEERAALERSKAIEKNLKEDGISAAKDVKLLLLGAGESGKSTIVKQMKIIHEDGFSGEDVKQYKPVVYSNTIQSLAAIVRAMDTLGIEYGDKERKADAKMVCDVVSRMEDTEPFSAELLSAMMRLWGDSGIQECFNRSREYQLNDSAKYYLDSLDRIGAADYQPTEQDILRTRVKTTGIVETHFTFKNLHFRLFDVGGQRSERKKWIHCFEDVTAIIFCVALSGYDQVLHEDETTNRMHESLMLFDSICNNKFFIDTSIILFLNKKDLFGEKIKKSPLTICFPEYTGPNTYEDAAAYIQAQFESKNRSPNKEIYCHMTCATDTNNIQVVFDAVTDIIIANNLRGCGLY
GALR2 ag = GALR2 receptor agonists, primary screen, cell-based; AID 803, 2007; GALR2-expressing cells, agonist activation read-out; activation, %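 (tested at 5 µM)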; 140,000 compounds, 0.48% hits; Galanin receptor type 2 (Homo sapiens), O43603;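 active = above mean plus 3 SD of all compounds, about 5% in these data, not always enough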;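 note: 0% = vehicle buffer wells and 100% = reference agonist at full effect; tested in CHO reporter cells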
Target sequence (O43603 whole entry, looked up): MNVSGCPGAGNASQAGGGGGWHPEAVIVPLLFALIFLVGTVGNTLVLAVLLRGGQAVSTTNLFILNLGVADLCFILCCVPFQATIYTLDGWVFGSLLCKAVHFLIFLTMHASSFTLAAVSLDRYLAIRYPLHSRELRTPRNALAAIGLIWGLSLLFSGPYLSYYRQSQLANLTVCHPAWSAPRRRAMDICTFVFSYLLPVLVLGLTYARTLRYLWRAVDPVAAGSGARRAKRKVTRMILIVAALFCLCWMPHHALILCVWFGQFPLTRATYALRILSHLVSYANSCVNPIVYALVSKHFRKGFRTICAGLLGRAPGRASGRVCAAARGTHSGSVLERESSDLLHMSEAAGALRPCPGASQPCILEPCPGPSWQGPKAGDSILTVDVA
INS promoter inh cell count = further read-out of INS promoter inh, marked with its call; normalized cell count, %; measured here: cell count, toxicity; reference of the scale not given here;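 cells exposed to compound for 48 h; stained nuclei by imaging scaled within each plate; lower means fewer cells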
HSV augment primary fold = further read-out of HSV augment, marked with its call; fold increase; compound at 10 µM; measured here: primary screen fold increase 10 uM; tested in PC3 cells;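 GFP signal in the first replicate; 1 = infected wells without compound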
* marks the source's active call; other numbers are inactive results; i = inactive; nt = not tested or not shown. Outcome played no part in choosing rows; any-hit rate near 1.3%.

Results follow in this order: HSV augment	HSV augment primary fold	INS promoter inh	INS promoter inh cell count	PKD1 inh	RGS16-Gao HTS	GALR2 ag
> CCOc1cccc(NC(=O)/C(C#N)=C\c2cccnc2)c1
    i	0.92	nt	nt	0	99	nt
> CC(C)c1nc(C(=O)N2CCc3c([nH]c4ccccc34)C2c2ccccn2)cs1 (stereo not drawn)
    i	0.85	nt	nt	-4	87	nt
> CCCn1c(CN(C)Cc2ccccc2)nc2c1c(=O)n(C)c(=O)n2C
    i	0.94	0	137	-8	107	-2.0
> CCCOc1cccc(-c2cc(-c3n[nH]c(=S)n3CC)c3ccccc3n2)c1
    i	0.84	7	82	1	94	-1.6
> CC1CCCN(C(=O)Nc2ccc(Br)cc2Cl)C1 (stereo not drawn)
    i	1.1	nt	nt	3	114	nt
> CCCOc1ccccc1N/C(=N\S(=O)(=O)c1ccc(C)cc1)Nc1nc(C)cc(C)n1
    i	0.93	40	105	-9	nt	-2.6
> CCC1CCCCN1S(=O)(=O)c1ccc(S(=O)(=O)N2CCN(S(=O)(=O)CC)CC2)cc1 (stereo not drawn)
    i	0.72	nt	nt	2	99	2.2
> O=C1C2CCCN2C(c2cccs2)N1c1ccc(Cl)cc1 (stereo not drawn)
    i	0.87	nt	nt	0	104	-1.6
> O=[N+]([O-])c1cccc2ccc(/C=C/c3ccc(C(F)(F)F)cc3)nc12
    i	0.94	nt	nt	-2	104	-1.6
> O=C(NC(=O)c1ccccc1)OCC(F)(F)F
    i	1	-81	156	-8	94	-2.4
> CN1CCN(C(=O)CCN2C(=O)/C(=C\c3ccc(Cl)cc3Cl)SC2=S)CC1
    i	1.1	nt	nt	nt	83	nt
> COc1ccccc1NC(=O)N1CCN(S(C)(=O)=O)CC1
    i	1.1	nt	nt	0	101	nt
> CC(c1ccccc1)N1C(=O)NC(NC(=O)C(C)(C)C)(C(F)(F)F)C1=O (stereo not drawn)
    i	1.1	-56	90	1	52	1.8
> COc1ccc(S(=O)(=O)NCC2CCCN(C(=O)c3cccnc3)C2)cc1 (stereo not drawn)
    i	0.74	nt	nt	-5	112	nt
> O=C(N/N=C/c1ccc2c(c1)OCO2)c1cccs1
    i	1	23	141	-5	55	-1.4
> O=C(Nc1ccc(Br)cc1)c1ccc(N2C(=O)C3CC=C(Cl)CC3C2=O)cc1 (stereo not drawn)
    i	0.84	43	150	3	104	12*
> C=CCc1ccc(OC(=O)c2ccccc2)c(OC)c1
    i	0.82	nt	nt	12	97	nt
> CCOC(=O)c1c(C)nc(-c2ccccc2)nc1NC(=O)C(C)C
    i	0.96	-9	57	-6	99	-2.7
> O=C(N/N=C/c1ccc2c(c1)OCO2)c1ccc(Cn2cc([N+](=O)[O-])cn2)o1
    i	0.92	27	94	-3	102	-0.3
> O=C(N/N=C/c1ccsc1)c1cc(O)cc(O)c1
    i	1	16	75	0	81	-1.9
> Cc1cccc(N2C(=O)NC3(CCCCC3)C2=O)c1
    i	1	-78	61	-1	100	-1.6
> COc1ccccc1Cc1nc(-c2ccc(Br)o2)no1
    i	1.1	nt	nt	-10	103	-0.9
> O=C(c1cc2nc(C3CC3)cc(C(F)F)n2n1)N1CCOCC1
    i	0.99	-36	92	-1	78	1.7
> COC(=O)CC1=C(C(=O)OC)C(c2cccs2)C(C#N)=C(N)O1 (stereo not drawn)
    i	1	nt	nt	-8	94	-1.2
> CC1=C(C(=O)OCc2ccccc2)C(c2cccnc2)n2nnnc2N1 (stereo not drawn)
    i	0.9	3	201	-11	100	-2.0
> CC(Sc1nc2ccc(Br)cc2[nH]1)C(=O)O (stereo not drawn)
    i	0.73	-23	175	-3	102	-1.3
> CCN(CC)C(=O)CSc1nnc(-c2cccnc2)n1CCc1ccccc1
    i	1	31	70	7	102	-2.5
> CCOC(=O)COc1ccc(S(=O)(=O)c2ccc(OCC(=O)OCC)cc2)cc1
    i	0.65	-39	109	1	59	-3.5
> COc1ccc(OC)c(NC(=O)C(=O)N/N=C/c2ccccc2[N+](=O)[O-])c1
    i	0.8	-13	72	4	100	-1.7
> CCCOC(=O)c1ccc(Oc2cn[nH]c2-c2ccc(OCC)cc2O)cc1
    i	0.78	-157	39	13	104	-0.7
> O=C(OCc1c(Cl)cccc1Cl)c1cnccn1
    i	0.99	-18	81	-10	100	-0.7
> CC(=O)c1ccc(N=c2scc(C)n2C(C)C)cc1
    i	1.3	nt	nt	0	100	nt
> CCOCC(=O)Nc1cccc(-c2nc3cccnc3s2)c1C
    i	0.94	nt	nt	-7	141	nt
> COC(=O)CNC(=O)C(NC(=O)OCc1ccccc1)C(C)C (stereo not drawn)
    i	0.94	-100	100	-1	97	nt
> COC(=O)CSc1nnnn1-c1ccccc1
    i	1	-10	80	-1	102	-2.6
> CCCSC1=C(C#N)C(c2ccc(Cl)cc2Cl)CC(=O)N1 (stereo not drawn)
    i	0.95	0	100	6	78	-1.1
> COc1ccc(OCc2nc(N)nc(Nc3ccccc3OC)n2)cc1
    i	1	33	40	-7	102	-1.5
> COc1ccccc1NC(=S)NC(NC(=O)c1ccco1)C(Cl)(Cl)Cl (stereo not drawn)
    i	1	-43	110	3	102	0.0
> CCNC(=S)N/N=C/c1cccc(C)c1
    i	0.98	25	174	3	105	-0.4
> CCCN(CCC)CCCNC(=O)CN1C(=O)CSc2ccc(S(=O)(=O)N3CCOCC3)cc21
    i	1	0	83	-10	93	nt
> CCCOc1ccc(C2NC(=S)NC(C)=C2C(=O)c2ccccc2)cc1OC (stereo not drawn)
    i	0.96	nt	nt	8	97	-1.1
> CC1=NN(c2nc(-c3ccc(C)cc3)cs2)C(=O)C1N=Nc1ccc2ccccc2c1 (stereo not drawn)
    i	0.95	13	130	-1	107	-1.6
> CC(Oc1cccc(F)c1)c1ccnc2nc(/N=C/N(C)C)nn12 (stereo not drawn)
    i	0.99	-18	107	-6	95	nt
> COc1ccccc1-c1nc(C#N)c(N2CCC(Cc3ccccc3)CC2)o1
    i	0.95	-50	146	11	101	-3.3
> COc1cccc(OC)c1CC1SC(=O)NC1=O (stereo not drawn)
    i	0.98	nt	nt	-3	113	nt
> COC(=O)CNC(=O)c1c(C)cc(=O)oc1C
    i	0.88	-11	137	2	103	-2.3
> COC(=O)CC1SC(=O)NC1=Nc1ccc(OC)cc1 (stereo not drawn)
    i	0.78	36	86	-10	102	-0.7
> COc1ccccc1CNC(=O)C1CCC(CNc2c(N3CCOCC3)c(=O)c2=O)CC1 (stereo not drawn)
    i	0.93	nt	nt	-14	99	-2.2
> O=C1CS/C(=N/N=C\c2ccn[nH]2)N1
    i	0.89	nt	nt	nt	104	nt
> Cc1ccc(S(=O)(=O)Nc2ccccc2C(=O)NCc2cccnc2)cc1
    i	1	nt	nt	-3	99	nt
> O=C1c2ccccc2C(Nc2cccnc2)N1Cc1ccccc1 (stereo not drawn)
    i	1	nt	nt	2	104	-3.0
> CCOC(=O)CCc1nn(C)c(=O)c2ccccc12
    i	0.93	-19	104	-1	106	-0.6
> CCn1c(SCC(=O)Nc2sc(C)c(C)c2C#N)nnc1C(C)C
    i	0.99	21	194	-11	100	0.6
> Cc1ccccc1NC(=O)NCCCN1CCN(C2CCCCC2)CC1
    i	0.96	-10	113	5	146	-3.5
> CCCC(C)NC(=O)CSCc1ccc(OC)cc1 (stereo not drawn)
    i	1.2	-68	85	-4	91	nt
> CCCNS(=O)(=O)c1ccc(NC(=O)c2ccccn2)cc1
    i	0.84	-6	156	-8	107	-0.5
> O=C(CC1Sc2ccccc2NC1=O)c1ccc(Br)cc1 (stereo not drawn)
    i	1	-8	127	10	117	-1.1
> COc1ccc2c(c1)C(SCC(=O)NCc1ccccc1)CC(C)(C)O2 (stereo not drawn)
    nt	nt	-25	128	-6	98	-0.9
> CCOC(=O)c1ccc(NC(=O)Cn2c(-c3nonc3N)nc3ccccc32)cc1
    i	0.95	-50	69	-1	128	nt
> Clc1ccccc1N=C1NN=C(c2cccs2)CS1
    i	0.75	7	89	-4	104	nt

Next results follow.
Results follow in this order: HSV augment	HSV augment primary fold	INS promoter inh	INS promoter inh cell count	PKD1 inh	RGS16-Gao HTS	GALR2 ag
> COc1ccc(CN2CCC(CO)(CCOc3ccccc3)CC2)cc1C
    i	0.93	nt	nt	5	102	nt
> CCN1CCN(CC(O)COc2ccc3c(c2)CCC3)CC1 (stereo not drawn)
    i	0.95	-21	11	4	94	-1.1
> CCC(CC)c1nnc(NC(=O)CCNC(=O)c2ccccc2Cl)s1
    i	1	19	107	-2	107	nt
> O=c1ccn(CCOc2ccc(Cl)cc2)c(=O)[nH]1
    i	1	14	118	-2	108	-1.0
> CC(C)(C)C1CCC(=NNC(=O)C(=O)NCc2ccco2)CC1 (stereo not drawn)
    i	0.84	nt	nt	1	100	nt
> COc1ccccc1CNC(=O)c1oc2ccc(S(=O)(=O)N3CCCC3)cc2c1C
    i	0.87	55	122	-5	98	2.1
> CC(OC(=O)Nc1cccc(Cl)c1)C(=O)O (stereo not drawn)
    i	0.91	nt	nt	nt	100	nt
> CC1=C(C(=O)Nc2ccc(C)cc2C)C(c2ccc(C)o2)NC(=S)N1 (stereo not drawn)
    i	0.93	15	111	-7	84	-2.0
> CCCC(=O)N(c1ccc2oc(C)c(C(C)=O)c2c1)S(=O)(=O)c1ccc(C)c([N+](=O)[O-])c1
    i	0.91	0	94	-2	104	-2.2
> CCOP(=O)(OCC)/C(C#N)=C/c1cc(OC)ccc1OC
    i	0.96	nt	nt	nt	104	nt
> Cn1ccnc1SCC(=O)c1ccc(O)cc1
    i	0.94	nt	nt	nt	104	nt
> COc1ccc(-c2nc(-c3ccc(Br)cc3)no2)c(OC)c1
    i	1.1	31	120	-5	102	-1.1
> CC(Sc1nc(NCc2ccccc2)nc(N(C)C)n1)C(=O)Nc1ccccc1 (stereo not drawn)
    i	0.91	nt	nt	9	100	-1.4
> CC(C)C(=O)NC(=S)Nc1ccc(S(=O)(=O)Nc2nccs2)cc1
    i	1	nt	nt	-1	104	nt
> COC(=O)c1[nH]c2ccc(F)cc2c1NC(=O)CCN1CC(C)OC(C)C1 (stereo not drawn)
    i	1	16	102	-5	100	-1.8
> CCOc1ccc(C(=O)NCC(=O)N2CCC(C)CC2)cc1OCC
    i	1.1	33	88	-1	102	nt
> O=C(Nc1ccc(Cl)c(Cl)c1)Nc1ccccc1NS(=O)(=O)c1cccs1
    i	1	nt	nt	6	98	-1.3
> N#Cc1ccccc1OCCOCCNC1CCCC1
    i	1	18	108	1	106	-1.1
> CCN(CC)c1ccc(C(=O)O)cc1
    i	1.1	nt	nt	1	108	-0.4
> CC(=O)c1ccc2c(c1)c1ccccc1n2CC(C)C
    i	0.95	45	102	1	92	-1.1
> C1=C(c2ccccc2)Nc2nnnn2C1
    i	0.93	23	96	-9	99	-4.5
> N/C(=N\OC(=O)c1ccccc1[N+](=O)[O-])c1ccccn1
    i	0.84	19	124	-3	101	nt
> Fc1ccc(CNn2cnnc2SCc2ccc(F)cc2)cc1
    i	1.1	69	165	-1	107	-1.3
> Clc1cccc(Cl)c1CSc1nnc([C@@H]2CCCN2)o1
    i	0.99	nt	nt	nt	100	nt
> CCCC(=O)Nc1ccc(Br)c(Cl)c1
    i	0.79	-443	90	-11	114	-3.0
> CCc1c(C)nc2ncnn2c1N1CCC(C(=O)Nc2ccccc2)CC1
    i	1.1	nt	nt	-9	114	0.8
> COc1ccc(C(=O)NNC2CC(=O)N(Cc3ccc(Cl)cc3)C2=O)cc1OC (stereo not drawn)
    i	1	3	96	-2	103	0.4

One compound at a time, from the list above. Order of screens: HSV augment, HSV augment primary fold, INS promoter inh, INS promoter inh cell count, PKD1 inh, RGS16-Gao HTS, GALR2 ag
CCc1c(C)nc2ncnn2c1N1CCC(C(=O)Nc2ccccc2)CC1 is listed as i, 1.1, nt, nt, -9, 114, 0.8
Fc1ccc(CNn2cnnc2SCc2ccc(F)cc2)cc1 is listed as i, 1.1, 69, 165, -1, 107, -1.3
O=C(Nc1ccc(Cl)c(Cl)c1)Nc1ccccc1NS(=O)(=O)c1cccs1 is listed as i, 1, nt, nt, 6, 98, -1.3
N#Cc1ccccc1OCCOCCNC1CCCC1 is listed as i, 1, 18, 108, 1, 106, -1.1
